Bioassay records from PubChem BioAssay.
VDR inh = inhibitors of human vitamin D receptor; VDR-SRC2-3 peptide fluorescence polarization, 2 h; AID 504847; hit rate 0.93% among 400,000; Potency, µM, inactives show max response, negative = inhibition, most hits filed as inhibitors; P11473; active = well fitted inhibition curve with a large enough effect; inconclusive = small, poorly fitted or top-dose-only effect, or another doubt; inactive = no such curve, though single readings can be large or run the other way; also: series mostly up to about 120 µM
Target sequence (P11473 whole entry, looked up): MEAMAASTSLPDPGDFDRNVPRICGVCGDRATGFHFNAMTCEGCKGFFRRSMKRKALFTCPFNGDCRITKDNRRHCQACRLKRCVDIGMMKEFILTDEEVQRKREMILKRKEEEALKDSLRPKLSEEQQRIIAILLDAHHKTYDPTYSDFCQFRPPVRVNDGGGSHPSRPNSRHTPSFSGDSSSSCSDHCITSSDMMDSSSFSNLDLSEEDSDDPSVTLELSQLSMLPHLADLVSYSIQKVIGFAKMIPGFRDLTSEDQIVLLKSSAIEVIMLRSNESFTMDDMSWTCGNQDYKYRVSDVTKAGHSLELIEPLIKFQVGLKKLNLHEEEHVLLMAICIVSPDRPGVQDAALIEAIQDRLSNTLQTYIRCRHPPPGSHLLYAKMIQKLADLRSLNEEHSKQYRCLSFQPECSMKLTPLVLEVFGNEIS
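Inhibition of the VDR/SRC2-3 peptide interaction is quantified by fluorescence polarization. Compounds (23 nl, pintool) incubate with the reagents for 2 hours at ambient room temperature.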
An asterisk follows results filed as active; ? = inconclusive; & = joins results of further samples. % is scaled to controls: 0 for no effect and ±100 for the full control effect; potency is read from the fitted curve at half-maximal effect.

smiles,VDR inh
COc1ccc(CCC2(C)NC(=O)N(C(C)C(=O)N3c4ccccc4CC3C)C2=O)cc1 (stereo not drawn),-1%
Cc1cccc(NC(=O)COc2ccccc2)c1,13%
Cc1csc2nnc(N)n12,19%
CCc1ccc(CNc2ncc(-c3cccc(OC)c3)n2C)cc1,-6%
CCN(CC(=O)Nc1ccc(NC(C)=O)cc1)C(=O)c1ccc2c(c1)OCO2,-6%
CCC(C)N(C(=O)COc1ccccc1C#N)C1CCS(=O)(=O)C1 (stereo not drawn),-18%
COc1ccc(CCNCC(O)COc2cccc(C(C)=O)c2)cc1OC (stereo not drawn),-4%
Cc1c(C)n(Cc2ccc(F)cc2)c2ccc(C(=O)N3CCN(c4ccccn4)CC3)cc12,3%
Cc1cn2c(=O)cc(COc3ccccc3NC(=O)c3ccc(Cl)cc3)nc2s1,2%
Cc1cc(N2CCC(C(=O)Nc3ccc(F)cc3F)CC2)n2nc(C)c(-c3ccc(Cl)cc3)c2n1,-14%
CCOc1ccc2nc(SCC(=O)N(C)C)[nH]c2c1,4%
COc1ccc2nc(N=Nc3ccc(O)c4ccccc34)sc2c1,-7%

5 of the entries above in order of their number in VDR inh, lowest first.
| Compound | VDR inh |
| --- | --- |
| COc1ccc2nc(N=Nc3ccc(O)c4ccccc34)sc2c1 | -7% |
| COc1ccc(CCNCC(O)COc2cccc(C(C)=O)c2)cc1OC (stereo not drawn) | -4% |
| Cc1cn2c(=O)cc(COc3ccccc3NC(=O)c3ccc(Cl)cc3)nc2s1 | 2% |
| Cc1c(C)n(Cc2ccc(F)cc2)c2ccc(C(=O)N3CCN(c4ccccn4)CC3)cc12 | 3% |
| Cc1csc2nnc(N)n12 | 19% |

The results go on:
smiles,VDR inh
COc1ccc(-c2cc(C(F)(F)F)nc(N3CCOCC3)n2)cc1,12%
C[C@@H]1O[C@@H](O[C@@H]2C(=O)c3c(O)cc(O)cc3O[C@H]2c2ccc(O)c(O)c2)[C@H](O)[C@H](O)[C@H]1O,9%
O=S(=O)(Nc1ccncc1Cl)c1ccccc1,9%
COCCNC(=O)/C(=C/c1ccccc1Cl)c1ccccc1,-5%
CCCCC(=O)NC(=S)Nc1cc([N+](=O)[O-])ccc1OC,-22%
Cc1nc2ccccc2c(=O)n1-c1ccc(NC(=O)c2cccc([N+](=O)[O-])c2)cc1,10%
CC(C)(C)Oc1ncc(Br)c(OC(C)(C)C)n1,8%
CCc1c(C)nc2cc(C)[nH]n2c1=O,11%
COc1ccc(OC)c(NC(=O)CN(C)CC(=O)Nc2ccccc2Br)c1,1%
Cc1ccc(S(=O)(=O)c2nc(S(C)(=O)=O)sc2N2CCCCCC2)cc1,-6%
COc1cccc(NC(=O)c2cccc(Cl)c2)c1,-21%
Cc1ccc(/C=N/NC(=O)Cn2nnc(N)n2)o1,-17%
COc1ccc(NC(C)=O)cc1NC(=O)c1ccc(C#N)cc1,7%
COc1ccc(OC)c(-n2c(-c3cccc(O)c3)n[nH]c2=S)c1,-24%
CCOP(=O)(OCC)c1nc(-c2cccc3ccccc23)oc1NCc1ccccc1,-8%
COc1ccccc1CCNC(=O)C(=O)NCC1OCCN1S(=O)(=O)c1cccs1 (stereo not drawn),-5%
CCCOc1ccc(CSC(=N)N)cc1C(=O)OC,-10%
COc1ccc(NC(=O)c2ccc3c(=O)n(CC4CCCO4)c(=S)[nH]c3c2)c(OC)c1 (stereo not drawn),-9%
Cn1nnc(NC(=O)c2cccc(F)c2)n1,-7%
CCCN(CCC)C(=O)Cn1c(=O)n(-c2ccccc2)c(=O)c2c3c(sc21)CCCC3,8%
CN(c1ccc(C(=O)N2CCc3ccccc3C2)cc1)S(C)(=O)=O,5%
COc1ccc(NC(=O)c2nc[nH]c2C(=O)N2CCC(C)CC2)cc1,-3%
Cc1ccc(S(=O)(=O)Nc2nc3ccccc3nc2NCc2ccc3c(c2)OCO3)cc1C,-16%
O=C(c1ccc(F)cc1)C1CCN(C(=S)Nc2ccc(F)cc2)CC1,-22%

Four of the compounds above, field by field:
Molecule: Cc1ccc(S(=O)(=O)Nc2nc3ccccc3nc2NCc2ccc3c(c2)OCO3)cc1C
  VDR inh = -16%
Molecule: CN(c1ccc(C(=O)N2CCc3ccccc3C2)cc1)S(C)(=O)=O
  VDR inh = 5%
Molecule: O=C(c1ccc(F)cc1)C1CCN(C(=S)Nc2ccc(F)cc2)CC1
  VDR inh = -22%
Molecule: CCOc1ccc2nc(SCC(=O)N(C)C)[nH]c2c1
  VDR inh = 4%

Later entries.
smiles,VDR inh
CC(=O)c1c2c3c(cccc3n(C)c1=O)C(=O)c1ccccc1-2,-13%
CCCCCCCCCC(=O)NO,0%
Cc1cc(C(=O)N2CCc3c([nH]c4ccccc34)C2c2c(F)cccc2Cl)no1 (stereo not drawn),-3%
COc1ccccc1-c1noc(CCC(=O)NC2CCCC2)n1,13%
O=C(Cc1c(F)cccc1Cl)NCC(=O)OCc1ccccc1,10%
COCC(=O)Nc1nc(-c2ccc(C)cc2)c(C)s1,-2%
CCCCCCCCCC(=O)N[C@@H]1c2cc(OC)c(OC)cc2C[C@H]1OCc1ccccc1,-11%
O=C(CN1C(=O)c2ccccc2C1=O)Nc1ccc(S(=O)(=O)N2CCOCC2)cc1,-7%
CC(C)(C)c1ccc(C(=O)NCCC(=O)NCc2cccs2)cc1,-21%
CS(=O)(=O)N1CCC2(CCCN(c3ncccn3)C2)CC1,8%
N#Cc1cccc(-c2nc(NCc3cccs3)c3ccccc3n2)c1,0%
COC(=O)c1ccc(CNC(=O)C2CCC(=O)N(C3CCCCCC3)C2)cc1 (stereo not drawn),11%

Additional structures.
molecule,VDR inh
COc1ccc(NC(=O)CN2C(=O)NC(CC(C)C)C2=O)cc1S(=O)(=O)N1CCOCC1 (stereo not drawn),-3%
Cc1ccc(-c2csc(NC(=O)c3cccc([N+](=O)[O-])c3)n2)cc1,-3%
CCn1c(SCC(=O)Nc2cccc(NC(C)=O)c2)nnc1C(C)C,11%
C/C(=N\NC(=O)c1ccccc1C)c1cccnc1,-21%
CCC(C)(C(=O)NC1CCCC1)N(C(=O)c1cnccn1)c1c(C)n(C)n(-c2ccccc2)c1=O (stereo not drawn),2%
COc1cc(C(=O)NCc2ccc(C)cc2)ccc1OCc1c(C)noc1C,-4%
COc1ccc(OCC(O)CNC(=O)Nc2cccc3ccccc23)cc1 (stereo not drawn),4%
C/C(=N\NC(=O)c1cccc(N2CCCC2=O)c1)c1ccc(N)cc1,-5%
Cc1ccc(C(=O)N2CCC(c3c[nH]c4ccccc34)(c3c[nH]c4ccccc34)CC2)cc1,8%
Cc1cc(C(F)(F)F)n2[nH]c(=O)c(N=Nc3ccccc3)c2n1,25%
C=CCNc1nc(N)c([N+](=O)[O-])c(N2CCCCCC2)n1,-14%
CC(=O)N1c2ccc(S(=O)(=O)N3CCN(c4ccc(C)cc4C)CC3)cc2CC1C (stereo not drawn),20%
CN(C)/C=C(\C(=O)c1ccccc1)c1nnnn1-c1ccccc1,7%
Cc1ccc(NC(=S)N2CCC(c3nc4ccccc4s3)CC2)cc1,21%
Cc1cc(C(=O)CSc2nc3ccccc3c(=O)[nH]2)c(C)n1C,?
O=C(c1ccco1)N1CCN(C(c2ccccc2F)c2nnnn2Cc2cccs2)CC1 (stereo not drawn),9%
Cc1ccc(Nc2nnc(C3C(=O)N(C)C4(C)CC3c3cc(Br)ccc3O4)s2)cc1 (stereo not drawn),-16%
Cc1cccc(C(=O)Nc2ccc(C(=O)/C=C/c3cccnc3)cc2)c1,?
CCNC(=O)CCCOc1ccc(Cl)cc1Cl,2%
Cc1[nH]c2ccccc2c1C(=O)CN1CC(C)CC(C)C1 (stereo not drawn),-2%
O=c1c2ccccc2nc(SCc2cccc(F)c2)n1-c1cccc(S(=O)(=O)N2CCCC2)c1,-8%
Cc1cc(C)nc(SCc2c(F)cccc2Cl)n1,-17%
Cc1cc(Cl)ccc1OCCSc1nnc(-c2cccs2)o1,3%
CC1=Cc2ccccc2C(C#N)N1C(=O)c1ccccc1 (stereo not drawn),22%
CC(=O)NC(C)c1nc2ccccc2n1CC(=O)N1C(C)CCCC1C (stereo not drawn),3%
COc1cc(-c2cccc([C@H]3[C@@H]4C=CC[C@@H](C)[C@@H]4C(=O)N3Cc3ccccc3)c2)cc(OC)c1OC,-21%
O=C(c1ccc2c3c(cccc13)C(=O)N(O)C2=O)N1CCCCC1,9%
CCCc1nnc(NC(=O)CC(=O)OCC)s1,6%
COc1ccc(N=C2NC(=O)/C(=C\C=C\c3ccco3)S2)cc1,1%
CC(=O)Oc1ccc(/C=N/NC(=S)Nc2ccccc2)cc1,-17%
CC1CC(N(C(=O)C2CC2)c2ccccc2)c2ccccc2N1C(=O)C1CC1 (stereo not drawn),11%
Cc1ccc(C)c(S(=O)(=O)c2nnn3c2nc(N2CCOCC2)c2sccc23)c1,-2%
O=[N+]([O-])c1cccc(-c2nnc3c4ccccc4c4ccccc4n23)c1,-7%
O=C(NCc1ccc(C(F)(F)F)cc1)C1CC(c2ccccc2[N+](=O)[O-])=NO1 (stereo not drawn),-3%
O=C(CSc1ccccn1)Nc1ccc2c(c1)C(=O)c1ccccc1C2=O,-24%
Cc1cc2oc(=O)c3c(c2cc1OC(=O)c1ccco1)CCCC3,1%
COc1ccc(S(=O)(=O)N(CC(=O)Nc2cc(C)cc(C)c2)c2ccc(Cl)cc2)cc1,-8%
C[C@H](CO)N1C[C@H](C)[C@@H](CN(C)C(=O)Nc2ccccc2)Oc2ccc(NC(=O)CCC(F)(F)F)cc2C1=O,-11%
CC1CCN(C(=O)c2cc(Cl)nc3ccccc23)CC1,-4%
COC(=O)c1c(C)oc(C)c(C(=O)OC)c1=O,-6%
O=C(NCC(c1ccco1)N1CCCC1)c1sc2ccccc2c1Cl (stereo not drawn),-16%
Cc1cccc(NC(=O)CCCCCn2c(=O)[nH]c3ccsc3c2=O)c1,-5%
Cc1ccc(-c2cnc(NCc3c(F)cccc3Cl)n2C)cc1,-1%
CC(C)(C)/C(Cn1cncn1)=N\OC(=O)Nc1ccc(Cl)cc1,15%
CCCCC(=O)Nc1ccc(NC(=O)c2ccc([N+](=O)[O-])cc2)cc1OC,-15%
C=CCc1cccc(CNn2cnnc2)c1O,-17%
CNC(=S)N/N=C/c1c(C)nn(-c2ccc(F)cc2)c1Cl,-7%
CCCCn1c(N)c(N(CCOC)C(=O)CSc2nnc(-c3ccc(F)cc3)n2N)c(=O)[nH]c1=O,-22%
CCOc1ccc(CC(=O)NNC(=S)NC)cc1Br,-14%
COc1ccccc1Oc1nc(C)c(C(C)=O)cc1C#N,-15%
Cc1cccc(OCC(=O)Nc2ccc(NC(=O)c3ccco3)c(C)c2)c1,-8%
COc1ccc(CCCNC(=O)C2CCC(=O)N(Cc3ccc(Cl)cc3)C2)cc1 (stereo not drawn),13%
O=C(Cc1ccc(Cl)cc1)NNC1CC(=O)N(c2ccc3ccccc3c2)C1=O (stereo not drawn),3%
COc1cccc(CNC(=O)CCNS(=O)(=O)c2cccs2)c1,8%
CCOC(=O)C1=C(C)N=C2SC(C)C(=O)N2C1c1ccc(OC(C)=O)c(OC)c1 (stereo not drawn),10%
CCCN1CCC(=O)N(CCSc2ccc(C)cc2)CC1,-9%&-1%
COc1ccc(NC(=O)CN(C)C(=O)CCc2c[nH]c3ccccc23)cc1,-19%
COc1ccc(CNc2ccc(-c3ccc(OC)cc3)nn2)cc1,6%
CCCC(C)NC(=O)Cc1ccccc1 (stereo not drawn),-20%
COc1cc(CN2CCN(CCc3ccccc3)C(CCO)C2)cc(OC)c1 (stereo not drawn),-1%

Reprinted at random: 4 entries already listed
molecule,VDR inh
O=C(NCc1ccc(C(F)(F)F)cc1)C1CC(c2ccccc2[N+](=O)[O-])=NO1 (stereo not drawn),-3%
CCCc1nnc(NC(=O)CC(=O)OCC)s1,6%
O=C(Cc1c(F)cccc1Cl)NCC(=O)OCc1ccccc1,10%
CC(=O)c1c2c3c(cccc3n(C)c1=O)C(=O)c1ccccc1-2,-13%

(next part)
molecule,VDR inh
O=C(O)CSc1nc2ccccc2n1Cc1ccccc1,-15%
CC(=O)Nc1ccc(S(=O)(=O)Nc2nc3ccccc3nc2N2CCOCC2)cc1,?
COC(=O)c1cc(S(=O)(=O)Nc2c(C)cccc2C)cn1C,-6%
CC(C)(C)OC(=O)N/N=C\c1ccc[nH]1,-14%
CN(C)S(=O)(=O)Oc1cccc(C(=O)Nc2ccc(Cl)c(Cl)c2)c1,17%
CN(C)c1ccc(/C=N/n2c(COc3ccccc3)n[nH]c2=S)cc1,-13%
Cc1nn(-c2ccccc2)c(N)c1N=O,-4%
CCCCOc1ccc(-c2c(C#N)c(N)[nH]c(=S)c2C#N)cc1,-12%
COc1ccc2c3n(nc2c1)CCN=C3c1ccc(Cl)cc1,-25%
CCN1C(=O)/C(=C/c2nc3ccccc3c(=O)n2-c2ccccc2)c2ccccc21,?
COc1ccc(CC(=O)Nc2nc(-c3ccccc3)c(C(C)=O)s2)cc1OC,-6%
CN(C)C(CNC(=O)c1ccc(S(=O)(=O)Nc2ccccc2)cc1)c1ccco1 (stereo not drawn),0%
Nc1c(C(=O)c2ccccc2)sc(Nc2ccc(Cl)c(Cl)c2)c1C(=O)Nc1ccccc1,-12%
CCOC(=O)c1c(C)[nH]c(C)c1S(=O)(=O)N(C)CC(=O)N1CCN(c2cccc(C)c2C)CC1,10%
CCCCc1cc(=O)oc2cc(OCC(=O)N3CCOCC3)ccc12,0%
CN(C(=O)C(Cl)Cl)c1ccc(OC(=O)c2ccco2)cc1,-19%&-1%
Cc1ccc(/C=C2/C(=N)N3N=C(CC(=O)N4CCCC4)SC3=NC2=O)o1,-7%
COc1ccc(OCc2ccc(-c3nc(C#N)c(NCc4ccccc4)o3)o2)cc1,0%
O=C(C(=O)N1CCN(c2ccc(F)cc2)CC1)c1c[nH]c2ccccc12,15%
CC(NC(=O)Cn1ccsc1=N)C12CC3CC(CC(C3)C1)C2 (stereo not drawn),-21%

Some of the compounds tested; count on the stated rates, not on these rows.
